DUX4 txn inh – inhibitors of DUX4-driven ZSCAN4 reporter expression, primary screen, 293T cells, Gaussia and Italica luciferase; 293T-iDUX4 ZSCAN4-Gaussia luciferase reporter, 24 h; active compounds read low; activity change, negative = inhibition, % (no concentration beside the values); 0.8% of 37,000 active; AID 1224904, 2016;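 active = -10% or lower and over 25 points stronger than a control reporter; inconclusive = -10% or lower with a smaller gap; inactive = above -10%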;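 also: 0% = median of neutral control wells and -100% = median of positive control wells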
DUX4 txn inh difference – further read-out of DUX4 txn inh, marked with its call; Gaussia minus Italica difference, %; measured here: selective DUX4 reporter inhibition;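 worked out from the two reporters; negative = selective loss of the DUX4 reporter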
DUX4 txn inh control – also measured in DUX4 txn inh; calls as there; activity change, negative = inhibition, %; measured here: Italica tet-on control reporter;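 0 = neutral control and -100 = positive control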
The depositor's hits bear a star; ? = inconclusive; . = not tested or not shown; ! = a repeat was not active. An excerpt; rates above refer to the full screens.

Results follow in this order: DUX4 txn inh, DUX4 txn inh difference, DUX4 txn inh control
> CO[C@H]1CN(C)C(=O)c2cc(NC(=O)c3ccc4c(c3)OCO4)ccc2OC[C@H](C)N(CC2CC2)C[C@H]1C
 : 0.8, -5.4, 6.2
> C[C@H](CO)N1C[C@H](C)[C@@H](CN(C)Cc2ccncc2)Oc2ccc(NS(=O)(=O)c3ccc(F)cc3)cc2CC1=O
 : -0.2, 0.7, -0.9
> O=C(C[C@@H]1C=C[C@H](NC(=O)C2CCC2)[C@H](CO)O1)NC1CCCCC1
 : 1.4, -1.6, 2.9
> COc1cccc(S(=O)(=O)Nc2ccc3c(c2)C(=O)N(C)C[C@@H](OC)[C@@H](C)CN(Cc2ccccc2F)[C@@H](C)CO3)c1
 : ?, ., .
> CO[C@@H]1CC[C@@H]2CCN(C)C(=O)C[C@@H](c3ccccc3)CN(C)C(=O)c3cc(C#N)ccc3OC[C@@H]1O2
 : 4.0, 12.7, -8.7
> O=C([C@H]1[C@H](CO)[C@H]2Cn3c(ccc(C4=CCCCC4)c3=O)[C@@H]1N2)N1CCC(Cc2ccccc2)CC1
 : 5.5, 7.2, -1.7
> C[C@H]1CN([C@@H](C)CO)S(=O)(=O)c2ccc(C3=CCCCC3)cc2O[C@@H]1CN(C)Cc1ccccc1F
 : 0.6, 4.3, -3.7
> O=C(NCCc1ccccc1)[C@@H]1[C@@H](CO)[C@@H]2Cn3c(cccc3=O)[C@@H]2N1Cc1ccncc1
 : 3.4, -5.1, 8.5
> N#C[C@H]1[C@@H](c2ccccc2/C=C/c2ccccc2)[C@@H](CO)N1C(=O)Nc1ccccc1
 : -1.0, -7.4, 6.4
> CCC(=O)N1C[C@@H](C)[C@@H](OC)CN(C)C(=O)c2cc(NC(=O)Nc3ccc(Cl)cc3)ccc2OC[C@H]1C
 : -4.7, 1.3, -6.0
> O=C(C[C@H]1CC[C@@H]2[C@H](COC[C@@H](O)CN2S(=O)(=O)c2ccccc2)O1)NCCN1CCCC1
 : 8.7, 5.7, 2.9
> CC(C)[C@H](C)NC(=O)N(C)C[C@H]1OCc2ccccc2-c2ccccc2C(=O)N([C@@H](C)CO)C[C@@H]1C
 : -3.2, 1.3, -4.4
> N#Cc1ccc(-c2ccc([C@@H]3[C@@H](CO)N4C(=O)CN(C(=O)Cc5ccccc5)C[C@@H]34)cc2)cc1
 : ?, ., .
> CC(C)NC(=O)N1[C@H](CO)[C@@H]2c3ccccc3N(C(=O)Nc3ccc(F)cc3)C[C@@H]21
 : 2.5, 5.4, -2.9
> O=C(Nc1ccccc1F)N1CCCCN2[C@H](C1)[C@@H](c1ccc(/C=C/c3ccccc3)cc1)[C@@H]2CO
 : ?, ., .

Reprinted from the part before: two entries; new compounds follow.
Results follow in this order: DUX4 txn inh, DUX4 txn inh difference, DUX4 txn inh control
> CC(C)NC(=O)N1[C@H](CO)[C@@H]2c3ccccc3N(C(=O)Nc3ccc(F)cc3)C[C@@H]21
 : 2.5, 5.4, -2.9
> O=C(Nc1ccccc1F)N1CCCCN2[C@H](C1)[C@@H](c1ccc(/C=C/c3ccccc3)cc1)[C@@H]2CO
 : ?, ., .
> CS(=O)(=O)N1[C@H](CO)[C@H](c2ccccc2)[C@@H]1C#N
 : 0.8, -4.0, 4.8
> C[C@@H]1CCCCO[C@@H](CN(C)C(=O)c2ccncc2)[C@@H](C)CN([C@@H](C)CO)C(=O)c2cc(NC(=O)NC3CCCCC3)ccc2O1
 : -2.4, -6.5, 4.1
> C[C@@H](NC(=O)C[C@H]1CC[C@H](NC(=O)Cc2ccccn2)[C@H](CO)O1)c1ccccc1
 : 0.6, 6.1, -5.5
> C[C@@H]1CN([C@H](C)CO)C(=O)c2cccc(NC(=O)c3ccncc3)c2O[C@@H]1CN(C)S(=O)(=O)c1ccccc1
 : -3.8, -8.7, 4.9
> CN1c2ccc(-c3ccc(C#N)cc3)cc2[C@@H]2[C@@H](CCN2C(=O)NC2CCCCC2)[C@@H]1CO
 : ?, ., .
> C[C@H]1CN([C@@H](C)CO)C(=O)c2ccccc2-c2ccccc2CO[C@H]1CN(C)Cc1ccc(O)cc1
 : 4.4, 0.6, 3.8
> COCC(=O)N1CC[C@@H]2[C@H](CO)Nc3ccc(C#Cc4ccc(OC)cc4)cc3[C@@H]21
 : 15.1, -0.1, 15.2
> N#C[C@H]1[C@H](c2ccc(C#CCC3CCCC3)cc2)[C@@H](CO)N1C(=O)CN1CCOCC1
 : -0.5, 0.3, -0.8
> COc1ccc(CN(C)C[C@@H]2Oc3c(NC(=O)c4cnccn4)cccc3C(=O)N([C@H](C)CO)C[C@H]2C)cc1
 : 1.9, -3.9, 5.8
> O=C(NC1CCCCC1)[C@@H]1[C@@H](CO)[C@@H]2Cn3c(cccc3=O)[C@@H]2N1CC1CCOCC1
 : 1.3, 4.6, -3.3
> O=C(C[C@@H]1CC[C@@H]2[C@H](COC[C@@H](O)CN2Cc2ccc(F)cc2)O1)NCCc1ccccc1
 : -2.4, -5.0, 2.6
> COc1ccc(-c2ccc3c(c2)[C@H]2[C@H](CCN2S(=O)(=O)c2ccc(OC)cc2)[C@H](CO)N3)cc1
 : ?, ., .
> CNC[C@H]1Oc2c(NC(=O)c3nc4ccccc4s3)cccc2C(=O)N([C@@H](C)CO)C[C@@H]1C
 : 4.5, -0.7, 5.1
> COc1ccccc1-c1ccc2c(c1)O[C@@H](CN(C)C(=O)c1ccncc1)[C@H](C)CN([C@@H](C)CO)S2(=O)=O
 : 0.1, -2.1, 2.2
> Cc1ccc(-c2ccccc2[C@H]2[C@@H](C#N)N(C(=O)Cc3cccnc3)[C@@H]2CO)cc1
 : 2.1, 6.0, -3.8

(cont.)
Results follow in this order: DUX4 txn inh, DUX4 txn inh difference, DUX4 txn inh control
> COc1ccc(C#Cc2ccc([C@H]3[C@@H](CO)N4CCCCN(S(=O)(=O)c5cn(C)cn5)C[C@H]34)cc2)cc1
 : ?, ., .
> N#C[C@H]1[C@@H](c2ccccc2C2=CCCCC2)[C@@H](CO)N1C(=O)Cc1ccncc1
 : -8.2, -2.7, -5.5
> CN1C(=O)c2cc(NC(=O)C3CC3)ccc2OC[C@H]2O[C@H](CC(=O)NCc3cccc(F)c3)CC[C@@H]21
 : -1.4, -2.6, 1.1
> CCOC(=O)N(C)C[C@@H]1OCc2ccccc2-c2c(n(C)c3ccccc23)C(=O)N([C@@H](C)CO)C[C@@H]1C
 : ?, ., .
> COc1cccc(-c2ccc([C@H]3[C@H](CO)N4C(=O)CN(C(=O)c5cccnc5)C[C@@H]34)cc2)c1
 : 4.3, 1.7, 2.6
> COCC(=O)Nc1ccc2c(c1)[C@@H]1C[C@@H](CC(=O)O)O[C@@H](CO)[C@@H]1O2
 : 0.4, 0.7, -0.3
> CC(C)NC(=O)N(C)C[C@H]1Oc2cc(C#Cc3ccccn3)ccc2S(=O)(=O)N([C@@H](C)CO)C[C@H]1C
 : -1.8, -2.5, 0.7
> COc1ccccc1CNC(=O)C[C@H]1C[C@H]2c3cc(NC(=O)NC4CCCC4)ccc3O[C@H]2[C@H](CO)O1
 : -2.6, -5.4, 2.8
> CC=Cc1ccc2n(c1=O)C[C@@H]1[C@@H](CO)[C@H](C(=O)NC3CCCC3)[C@H]2N1C(=O)c1cnccn1 (mixture of isomers)
 : 0.2, -2.5, 2.7
> C[C@H](CO)N1C[C@H](C)[C@@H](CN(C)S(=O)(=O)c2cccc(F)c2)OCc2cn(nn2)CCCC1=O
 : 3.3, 0.9, 2.5
> CCS(=O)(=O)N1CCCCN2[C@H](C1)[C@H](c1ccc(-c3ccccc3)cc1)[C@@H]2CO
 : -4.4, -11.2, 6.8
> O=C(c1ccc(F)cc1)N(CC1CCC1)C[C@H]1N[C@@H](CO)[C@H]1c1ccccc1
 : 0.4, 2.5, -2.1
> C[C@@H]1CN([C@@H](C)CO)C(=O)c2ccccc2-c2ccccc2CO[C@@H]1CN(C)C(=O)Nc1cccc(C(F)(F)F)c1
 : 4.2, 1.3, 2.9
> C/C=C/c1ccc([C@H]2[C@@H](CO)N(C(=O)CC)[C@H]2CNC(=O)CC)cc1
 : 0.2, -0.3, 0.5
> Cn1cnc(S(=O)(=O)N2CCCCN3[C@H](CO)[C@@H](c4ccc(-c5ccccc5F)cc4)[C@H]3C2)c1
 : 15.5, 4.8, 10.6

Brought forward from above: 3 entries, then new ones.
Results follow in this order: DUX4 txn inh, DUX4 txn inh difference, DUX4 txn inh control
> C[C@@H]1CN([C@@H](C)CO)C(=O)c2ccccc2-c2ccccc2CO[C@@H]1CN(C)C(=O)Nc1cccc(C(F)(F)F)c1
 : 4.2, 1.3, 2.9
> C/C=C/c1ccc([C@H]2[C@@H](CO)N(C(=O)CC)[C@H]2CNC(=O)CC)cc1
 : 0.2, -0.3, 0.5
> Cn1cnc(S(=O)(=O)N2CCCCN3[C@H](CO)[C@@H](c4ccc(-c5ccccc5F)cc4)[C@H]3C2)c1
 : 15.5, 4.8, 10.6
> CN(C)CC(=O)Nc1ccc2c(c1)[C@@H]1C[C@H](CC(=O)NCCN3CCCCC3)O[C@@H](CO)[C@@H]1O2
 : 1.2, -3.6, 4.8
> C[C@@H]1CN([C@@H](C)CO)C(=O)c2cc(NC(=O)Cc3cn(C)c4ccccc34)ccc2O[C@@H]1CN(C)Cc1ccc2c(c1)OCO2
 : 2.6, -0.7, 3.3
> COc1ccc(-c2ccc3c(c2)[C@@H]2[C@@H](CCN2C(=O)Cc2ccccn2)[C@@H](CO)N3C)cc1
 : ?, ., .
> C[C@@H]1CN([C@@H](C)CO)C(=O)c2cc(-c3cccc(C#N)c3)cnc2O[C@H]1CN(C)C(=O)C1CCOCC1
 : -0.9, -2.8, 1.9
> CCCNC(=O)C[C@@H]1CC[C@H]2[C@H](COc3ccc(NC(=O)NC(C)C)cc3C(=O)N2C)O1
 : 2.1, 0.9, 1.1
> CCCNC(=O)[C@H]1[C@H](CO)[C@H]2Cn3c(ccc(/C=C/c4ccccc4)c3=O)[C@@H]1N2C(=O)c1ccncc1
 : 2.8, -6.5, 9.2
> CCCNC(=O)N1CC2(C1)[C@H](c1ccccc1)[C@H](CO)N2Cc1ccc(F)cc1
 : 2.0, 7.9, -5.8
> N#C[C@H]1[C@@H](c2ccc(C3=CCCC3)cc2)[C@H](CO)N1C(=O)Cc1ccncc1
 : -3.9, 0.0, -3.9
> O=C(C[C@H]1CC[C@H]2[C@@H](COC[C@@H](O)CN2S(=O)(=O)c2ccccc2)O1)NCCN1CCCC1
 : 16.4, 7.1, 9.4
> C[C@@H]1CN([C@@H](C)CO)S(=O)(=O)c2ccc(C#C[C@@H](C)O)cc2O[C@H]1CN(C)C(=O)Cc1ccccn1
 : 1.2, -2.4, 3.6
> O=C(C1CC1)N1CC2(C1)[C@H](c1ccccc1)[C@@H](CO)N2Cc1nccs1
 : 9.5, 10.2, -0.7
> CCCNC(=O)C[C@@H]1CC[C@@H]2[C@H](COC[C@H](O)CN2C(=O)Nc2c(C)noc2C)O1
 : 12.5, 11.8, 0.6
> Cc1noc(C)c1NC(=O)N1C[C@H](O)COC[C@H]2O[C@H](CC(=O)N[C@@H]3CCN(Cc4ccccc4)C3)CC[C@@H]21
 : 9.1, 0.2, 8.9
> COc1cccc(S(=O)(=O)N2CCCCN3[C@H](C2)[C@H](c2ccc(C4=CCCCC4)cc2)[C@@H]3CO)c1
 : ?, ., .
> O=C(Cc1cccnc1)N[C@@H]1CC[C@@H](CCNS(=O)(=O)c2ccccc2Cl)O[C@@H]1CO
 : 2.9, 3.3, -0.4

Next section:
Results follow in this order: DUX4 txn inh, DUX4 txn inh difference, DUX4 txn inh control
> CCCNC(=O)C[C@@H]1CC[C@@H]2[C@H](COc3ccc(NC(=O)c4cccs4)cc3C(=O)N2C)O1
 : 5.3, 2.3, 3.0
> COc1ccc(NC(=O)N(C)C[C@@H]2OCc3ccccc3-c3c(n(C)c4ccccc34)C(=O)N([C@@H](C)CO)C[C@@H]2C)cc1
 : -5.7, 0.3, -6.0
> Cc1ccccc1S(=O)(=O)N1[C@@H]2CNC[C@H]1C2c1ccc(-c2ccc(C(=O)N(C)C)cc2)cc1 (some centres not stated)
 : 4.7, 4.8, -0.1
> O=C(C[C@@H]1CC[C@H]2[C@@H](COC[C@H](O)CN2Cc2cc(F)ccc2F)O1)NCc1ccc(Cl)cc1
 : ?, ., .
> C(=C\c1ccc(C2[C@@H]3CN(Cc4ccccn4)C[C@H]2N3)cc1)/c1ccccc1 (some centres not stated)
 : -31.7*, -25.4*, -6.3*
> N#C[C@H]1[C@H](c2ccccc2C2=CCCC2)[C@@H](CO)N1C(=O)C1CC1
 : 3.9, -8.5, 12.4
> C[C@H](CO)N1C[C@H](C)[C@H](CN(C)C(=O)Nc2ccccc2)Oc2ncc(-c3ccc(C#N)cc3)cc2C1=O
 : -6.9, -9.6, 2.6
> CS(=O)(=O)N1[C@@H](C#N)[C@H](c2ccc(-c3ccccc3F)cc2)[C@@H]1CO
 : 3.3, 4.3, -1.0
> C[C@@H]1CCCCO[C@H](CN(C)S(=O)(=O)c2ccc(Cl)cc2)[C@@H](C)CN([C@@H](C)CO)C(=O)c2cc(NS(=O)(=O)c3cn(C)cn3)ccc2O1
 : 3.5, 3.3, 0.2
> O=C(c1cccnc1)N1CC2(C1)[C@@H](c1ccccc1)[C@@H](CO)N2CC1CC1
 : 5.9, 5.1, 0.8
> O=C(N[C@@H]1CC[C@@H](CC(=O)N2CCN(c3ccccc3)CC2)O[C@@H]1CO)c1ccncc1
 : 1.9, 0.1, 1.8
> Fc1ccccc1-c1ccc(C2[C@@H]3CN(Cc4ccccc4)C[C@H]2N3)cc1 (some centres not stated)
 : -24.5*!, -29.2*, 4.8*
> COc1ccc2c3c(n(C)c2c1)[C@H](CO)N(C(=O)Cc1ccccn1)CC31CN(CC2CCCCC2)C1
 : -7.7, -10.7, 3.0
> Cc1ccc(-c2ccccc2[C@H]2[C@@H](C#N)N(C(=O)c3cccc(F)c3)[C@H]2CO)cc1
 : ?, ., .

High-throughput results (PubChem)
